Screens (PubChem)
Rango dissoc inh: inhibitors of RanGTP-induced Rango-importin beta complex dissociation; Potency, µM (series often up to 46.1 µM), without a hit: at the highest dose activity change, negative = inhibition; Biochemical FRET Rango-importin beta, RanGTP-induced dissociation; AID 540253; O95149+P62826; 0.071% of 340,000 active; active means falling FRET ratio curve, often poorly fitted, with flat reads before Ran was added; inconclusive means other falling curves, or compound fluorescence or quenching; inactive means flat or rising ratio curve;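 note: potency is the fitted concentration of half-maximal effect; % of control where 0% means no effect; nearly all actives have a fitted effect of over 45% in size; -100% = wells without RanGTP and RCC1; the record marks most hits as doubtful in a second field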
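Compounds preincubate 5 min with complex of recombinant Rango and importin beta in PBS with 1 mM DTT. Ran (0.6 uM) loaded with 2 mM GTP plus 0.2 uM RCC1 starts dissociation; FRET is recorded 45 min later.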
Rango complex inh: prevents formation of the Rango-importin beta complex. 0.031% of 340,000 active. Rango CFP/YFP FRET sensor + importin beta, 45 min. Potency, µM (series often up to 92.2 µM), for inactives: top-dose inhibition of complex formation. Q14974; active = rising FRET ratio curve, often small or poorly fitted; inconclusive = mostly compound fluorescence or quenching in the first reads; inactive = flat curves in all reads;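 note: potency is the fitted concentration of half-maximal effect; 0% = DMSO wells and 100% = buffer wells lacking importin beta; nearly all actives have a fitted effect of over 15% in size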
Target sequence (Q14974 whole entry, looked up): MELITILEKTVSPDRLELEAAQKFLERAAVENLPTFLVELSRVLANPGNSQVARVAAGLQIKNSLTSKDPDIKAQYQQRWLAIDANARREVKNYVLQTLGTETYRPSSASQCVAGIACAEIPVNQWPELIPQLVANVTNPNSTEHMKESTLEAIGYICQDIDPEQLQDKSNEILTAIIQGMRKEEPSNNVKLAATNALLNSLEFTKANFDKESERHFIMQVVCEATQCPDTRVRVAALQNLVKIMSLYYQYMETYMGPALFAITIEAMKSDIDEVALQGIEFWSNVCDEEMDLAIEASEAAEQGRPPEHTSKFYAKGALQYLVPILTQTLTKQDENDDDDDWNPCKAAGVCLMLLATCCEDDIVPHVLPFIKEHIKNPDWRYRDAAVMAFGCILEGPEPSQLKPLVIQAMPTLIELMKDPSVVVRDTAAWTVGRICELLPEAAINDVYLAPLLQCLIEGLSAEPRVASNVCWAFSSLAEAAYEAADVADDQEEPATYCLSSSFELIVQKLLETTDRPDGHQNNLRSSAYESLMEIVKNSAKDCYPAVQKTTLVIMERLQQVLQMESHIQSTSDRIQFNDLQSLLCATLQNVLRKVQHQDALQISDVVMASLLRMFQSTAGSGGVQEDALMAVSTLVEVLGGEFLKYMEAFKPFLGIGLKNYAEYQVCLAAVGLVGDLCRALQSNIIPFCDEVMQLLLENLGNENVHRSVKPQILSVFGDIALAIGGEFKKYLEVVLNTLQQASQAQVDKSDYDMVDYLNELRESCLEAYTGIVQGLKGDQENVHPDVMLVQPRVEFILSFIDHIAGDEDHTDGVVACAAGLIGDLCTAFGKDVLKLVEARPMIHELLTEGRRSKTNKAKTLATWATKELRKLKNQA
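FRET biosensor Rango (snurportin 1 IBB between N-terminal EYFP and C-terminal Cerulean), 50 nM in PBS/1 mM DTT/0.02% Tween-20/0.1% BSA, preincubated 5 min RT with compound; 0.125 microM importin beta added, 45 min RT, CFP/YFP FRET ratio read.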
miR-21 reporter: miR-21 reporter, rising signal; Potency, µM (top dose mostly 38.3 µM), for the others: at the highest dose reporter change, positive = more light; 340,000 tested, under 10 active; HeLa miR-21 FLuc reporter, luciferase, 48 h; active = well fitted rising curve with a large enough effect; inconclusive = small, poorly fitted or top-dose-only effect; inactive = no such curve, though single readings can be large or run the other way;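 note: % of control where 0% means no effect; miR-21 action dims this reporter so a rising signal means less miR-21 action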
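Luminescence from a firefly luciferase reporter carrying a miR-21 binding site downstream, stably expressed under a CMV promoter in HeLa cells that make miR-21 endogenously, reports miRNA modulation after 48 h compound exposure up to approximately 40uM final.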
GLA inh pH 4.5: alpha-galactosidase A (human) inhibition, pH 4.5; purified enzyme, 4-MU-alpha-Gal fluorescence, pH 4.5; P06280; 230,000 tested, under 10 active; AID 1467; activity change, negative = inhibition, % at 105 µM; inconclusive = small, poorly fitted or top-dose-only inhibition, or a rising curve; inactive = flat fitted curve, though single readings scatter; no compound was filed as active;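 note: 0% = full activity with enzyme and -100% = basal without enzyme; dose as in the result columns while the protocol names 77 µM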
The depositor's hits bear a star; ? = inconclusive; . = not tested or not shown; & = joins results of further samples. This is a subset, so the mix of outcomes need not match the whole.

Rango dissoc inh | Rango complex inh | miR-21 reporter | GLA inh pH 4.5 | mol
-12.0% | -1.8% | . | . | COc1ccc(NC(=O)COC(=O)CN2C(=O)C3CC=CCC3C2=O)c([N+](=O)[O-])c1 (centres undefined)
14.1% | -2.2% | -4.9% | . | O=C(Nc1cc([N+](=O)[O-])ccc1C(=O)Nc1cccnc1)c1ccccc1
-14.0% | 3.3% | -20.4% | -1.7 | COc1cc(NC(=O)c2ccc3c(c2)OCO3)c2ncccc2c1
9.4% | 0.1% | 3.6% | . | O=C(CCC1CCN(C(=O)c2ccco2)CC1)NCc1ccc(F)cc1
? | ? | -1.2% | -7.6 | Cc1cc(=O)[nH]c(N/N=C/C2=C(N3CCOCC3)C(=C\c3ccc(Cl)cc3)/CC2)n1
22.9% | -0.4% | -53.8% | -7.4 | O=C(OC(c1ccccc1)c1nccc2ccccc12)c1cccc([N+](=O)[O-])c1 (centres undefined)
1.0% | -2.0% | -22.3% | -8.0 | CCCn1c(NCc2ccc(N(C)C)cc2)nc2ccccc21
0.5% | -2.7% | -20.0% | 5.9 | O=C(NNC(=O)c1ccc2ccccc2c1O)c1ccccc1Cl
9.2% | -1.8% | -0.8% | -3.5 | Nc1cc(N)nc(SCC(=O)N2CCN(C(=O)c3ccco3)CC2)n1
-14.2%&-12.3% | 2.4%&0.3% | -1.3% | . | CC[C@H](C)C(=O)O[C@H]1C[C@@H](C)C=C2C=C[C@H](C)[C@H](CC[C@@H]3C[C@@H](O)CC(=O)O3)[C@H]21
-22.1% | 2.6% | -41.1% | -0.6 | Cc1cc(C)c(OCC(=O)Nc2cccc(O)c2)cc1C
0.1% | -1.4% | 5.2% | -13.5 | COCCNC(=S)N(Cc1cccs1)Cc1cc2cccc(C)c2[nH]c1=O
8.3% | 1.4% | -1.1% | 2.8 | CC[C@H](C)[C@@H](C(=O)N1CCNCC1)n1cc([C@@H](N)Cc2ccc(O)cc2)nn1
-15.8% | 0.8% | -0.9% | 8.7 | CC(C)N(Cc1ccccc1)C(=O)c1ccc2nsnc2c1
8.1% | -0.5% | -33.1% | . | Cc1ccc(CCNC(=O)c2cccc(N3CCCC3=O)c2)cc1
-4.8% | ? | -1.5% | -6.9 | CNc1nc(SC)nc(N(C)C#N)n1
12.3% | -0.9% | -16.2% | . | C/C(=N\NC(=O)COc1ccc2ccccc2c1)c1cccs1
4.4% | -2.2% | 9.6% | 10.0 | CCS(=O)(=O)Nc1ccc(-c2ccc(NS(=O)(=O)CC)c(OC)c2)cc1OC
-0.7% | 3.1% | -9.0% | . | COc1cc2[nH]c(=S)nc(NCc3ccc(Cl)cc3)c2cc1OC
-11.9% | 7.2% | 9.4% | . | Cc1ccc(S(=O)(=O)c2nc(S(=O)(=O)CCO)sc2N2CCOCC2)cc1
? | ? | 0.1% | -4.3 | NC(=O)c1sc2nccc(Nc3ccccc3)c2c1N
? | ? | -4.7% | ? | CC1=C(C#N)C(c2cccnc2)C2=C(CC(C)(C)CC2=O)N1 (centres undefined)
? | ? | 1.3% | -4.2 | COC(=O)c1cc2n3ccccc3c(C)c(-c3ccccc3)c-2c1C(=O)OC
-6.0% | -0.8% | 0.4%&-23.5% | . | COc1cccc(CNC(=O)CCS(=O)(=O)c2cc3c(cc2C)NC(=O)CO3)c1
20.5% | -3.7% | -2.2% | . | O=C(Nc1ccc(S(=O)(=O)N2CCCCC2)cc1)C1CC1
15.5% | -1.2% | -0.3% | ? | O=P(O)(CCc1ccccc1)C(O)c1ccccc1 (centres undefined)
-0.2% | -3.8% | -0.3% | . | O=S1(=O)c2ccccc2Nc2ccccc21
-12.6% | -1.3% | . | . | CCn1c(SCCN2CCCCC2)nc2c1c(=O)n(C)c(=O)n2C
14.1% | ? | -25.9% | . | COc1ccc2cc(C#N)c(SCC(=O)Nc3nonc3C)nc2c1
-3.9% | -0.6% | 0.1% | -5.4 | CCCN1/C(=C2/SC(=S)N(CC)C2=O)C=Cc2ccccc21
-9.1% | 0.0% | -11.5% | -1.0 | COc1ccc(-c2csc3ncn(-c4ccccc4)c(=O)c23)cc1OC
-18.8% | -1.2% | 2.6% | -19.9 | O=C(NC1CCCC1)C(=O)N(Cc1cccnc1)C(C(=O)NCc1ccco1)c1ccccc1F (centres undefined)
17.4% | 6.4% | -4.0% | -9.2 | COC(=O)CC1SC(=O)NC1=Nc1ccc(C)cc1 (centres undefined)
0.2% | -3.7% | -3.6% | 4.7 | Cc1onc(-c2ccccc2)c1C(=O)NCc1cccs1
? | -3.3% | -4.9% | . | CSc1oc(-c2ccco2)nc1S(=O)(=O)c1ccc(C)cc1
-13.4% | -0.8% | 27.2% | -3.2 | CCOC(=O)Nc1nc(-c2ccccc2)c(C(=O)c2ccc(Cl)cc2)s1
-5.0% | -3.9% | -6.2% | -6.0 | O=C(O)CSCCC(=O)Nc1ccc(F)cc1
-23.2% | -2.7% | -1.7% | 2.6 | CCCCn1c(CNC(=O)CCC)nc2ccccc21
7.8% | 1.0% | 1.7% | -16.1 | COc1ccc(Cc2noc(CN(C)CCc3ccccc3)n2)cc1OC
-1.2% | 4.3% | . | . | CC1CCN(C(=O)COC(=O)c2ccc3c(c2)C(=O)N(Cc2ccco2)C3=O)CC1
0.9% | -2.7% | . | . | O=C(COc1ccc(-c2nnco2)cc1)Nc1ccc(C(F)(F)F)cc1
10.2% | -0.1% | . | . | CCc1noc(C)c1C(=O)N(CC)CC(=O)Nc1ccccc1C(F)(F)F
11.6% | -1.3% | -4.0% | . | COc1ccc(C(C)C)cc1S(=O)(=O)NCCCn1ccnc1
-1.3% | 8.3% | -6.6% | 4.7 | CC(C)OC(=O)CSc1nnc(-c2ccc(Cl)cc2)n1N
-0.1% | -0.1% | 0.9% | . | Cc1ccc(NC(=O)C2CC(O)CN2C(=O)OCc2ccccc2)c(C)c1 (centres undefined)
-7.3% | -1.3% | -8.7% | -4.6 | Cc1ccc(-c2nnc(N3CCCCC3)c3ccccc23)cc1
-0.2% | -1.8% | 3.3% | -8.8 | Cc1ccc(S(=O)(=O)Nc2c(C)nn(C)c2C)cc1
8.6% | 1.6% | -7.8% | 13.3 | CC(=O)Nc1cccc(OC(=O)c2ccoc2C)c1

The last three entries of the part before come first, to join the parts:
Rango dissoc inh | Rango complex inh | miR-21 reporter | GLA inh pH 4.5 | mol
-7.3% | -1.3% | -8.7% | -4.6 | Cc1ccc(-c2nnc(N3CCCCC3)c3ccccc23)cc1
-0.2% | -1.8% | 3.3% | -8.8 | Cc1ccc(S(=O)(=O)Nc2c(C)nn(C)c2C)cc1
8.6% | 1.6% | -7.8% | 13.3 | CC(=O)Nc1cccc(OC(=O)c2ccoc2C)c1
-6.8% | 4.4% | 1.7% | -0.1 | C=CCc1ccc(OCCCCN2CC(C)OC(C)C2)c(OC)c1 (centres undefined)
-14.8% | 0.5% | . | . | Cc1ccsc1C(=O)NNC(=O)COc1ccccc1Cl
5.1% | 0.0% | 0.1% | -11.5 | CCCN(CC(=O)Nc1cc(C)on1)S(=O)(=O)c1cccc(C(F)(F)F)c1
0.2% | -1.1% | -3.0% | -4.7 | CC1=Nc2ccccc2NC(=O)C1Sc1nnc(C)s1 (centres undefined)
-10.9% | 3.4% | -5.5% | 3.3 | Cc1ccc(NC(=O)c2ccc(NCc3ccco3)c([N+](=O)[O-])c2)cc1Cl
0.4% | 0.7% | -0.1% | . | CCc1ccc(C2=NN(CCC(=O)NCC3CCCO3)C(=O)CC2)cc1 (centres undefined)
2.0% | -4.0% | 6.5% | 0.7 | C=CCC(C=C)S(=O)(=O)c1ccc(C)cc1 (centres undefined)
-3.2% | 0.5% | . | . | COc1ccc(CCNC(=O)c2cccc([N+](=O)[O-])c2)cc1OC
26.9% | -2.8% | 24.4% | -5.3 | CCOc1ccc(C2=Nn3c(nnc3-c3ccccc3OC)SC2)cc1
-2.4% | 1.7% | 0.9% | -2.3 | O=C(N/N=C/c1ccc(Cl)cc1Cl)C(=O)NC1CC1
-2.8% | 11.3% | -6.0% | . | Cc1ccc(NC(=O)C(C)N2CCc3ccccc3C2)cc1 (centres undefined)
3.0% | 0.4% | -11.3% | 3.2 | CC1(C)C(=O)OC(C(=O)c2ccc(C(C)(C)C)cc2)C(C)(C)C1=O (centres undefined)
-9.5% | -4.1% | ? | 0.5 | Cc1cccc2cc(-c3ccccc3)c(-c3ccccc3)c[n+]12
-17.8% | -0.7% | 2.6% | 2.6 | O=C(COC(=O)CNC(=O)c1ccc(Cl)cc1Cl)Nc1ccc(N2CCOCC2)cc1
-4.8% | -0.2% | 16.1% | -13.2 | Cc1ccc(-n2nnnc2SC(C)C(=O)NCC(=O)Nc2ccc(F)c(F)c2F)c(C)c1 (centres undefined)
9.8% | 4.6% | -20.6% | -11.1 | COc1ccc2nc(N=Nc3ccc(N(C)C)cc3)sc2c1
-5.1% | 3.9% | -4.1% | 3.1 | CCN(CC)C(=O)c1sc(NC(=O)C(C)C)c(C#N)c1C
-10.1% | 3.9% | . | . | O=C(c1cccs1)c1ccccc1Cc1cccs1
-11.2% | 7.7% | 29.3% | -10.2 | CC(C)c1ccc2[nH]c3c(c2c1)CCC/C3=N\NC(=O)c1ccncc1
-0.3% | 0.1% | 21.0% | -0.6 | CCc1cccc(CC)c1NC(=S)NC(C)c1ccccc1 (centres undefined)
-19.3% | -4.1% | -2.8% | . | CCC1CCCCN1CCCNC(=O)CN1C(=O)COc2ccccc21 (centres undefined)
0.1% | -2.8% | 26.7% | . | CC1CC(C)CN(CCCNC(=O)c2csc3c2CCCCC3)C1 (centres undefined)
-0.4% | 2.8% | -1.2% | . | CC(CN1CCCC1)OC(=O)c1ccc(Br)cc1 (centres undefined)
12.8% | 3.1% | . | . | OCC[C@H]1C[C@@H](O)[C@H](O)[C@@]2(CCc3ccccc3O2)O1
-11.4% | -0.9% | -21.3% | -1.2 | COc1ccc(C2=C(SC)CC2=NC(C)(C)C)cc1
2.6% | 0.1% | 0.1% | -5.7 | CC1CN(C(=O)c2ccc(N3CCCCC3)c([N+](=O)[O-])c2)CC(C)O1 (centres undefined)
-17.0% | 9.8% | -8.5% | 10.1 | COCc1nc(-c2cc(Br)ccc2OC)no1
9.8% | -4.0% | 12.0% | -3.3 | CCNc1nc(NCc2ccccc2)nc(SCC(=O)Nc2ccccc2)n1
4.2% | 5.6% | -11.9% | -12.4 | CCOc1ccccc1OCCCC(=O)Nc1ccc(OC)nc1
2.6% | -0.3% | -6.5% | -14.8 | O=C(CSc1nnc(-c2ccncc2)n1CC1CCCO1)Nc1nccs1 (centres undefined)
-4.4% | -7.9% | 14.1% | 4.1 | COc1cc(NC(=O)c2ccco2)c(OC)cc1NC(=O)CSc1nnc(-c2cccs2)n1C
-10.6% | -5.8% | . | . | CCCCn1c(N)c(N(CC(C)C)C(=O)c2oc3ccc(Br)cc3c2C)c(=O)[nH]c1=O
17.1% | 4.7% | 1.2% | -3.1 | Cc1ccc(C(=O)c2ccccc2C(=O)O)cc1C
-20.1% | 1.7% | -6.2% | . | Cc1ccc(CCNC(=O)CSCc2ccc(F)cc2)cc1
-0.9% | -1.8% | -0.7% | 6.7 | CCNc1ccc(C(=O)OCC(=O)NC(=O)NCC(C)C)cc1[N+](=O)[O-]
9.4% | 5.2% | -0.2% | . | O=C(NCCOc1ccccc1)C1CCC(=O)N(CCCN2CCCC2=O)C1 (centres undefined)
17.2% | 3.7% | -1.3% | 8.6 | OCCNC1=NCCN1
-3.4% | -0.3% | -5.1% | . | COc1cccc(CN(C)C(=O)c2cccc(OCc3ccccc3)c2)c1
0.2% | -2.1% | 1.5% | -3.9 | N=C1C(=O)OCC1c1cc(Cl)ccc1NC(=O)Nc1ccccc1 (centres undefined)
0.6% | 2.5% | -7.1% | 4.5 | c1ccc(COCCN2CCN(CCOCc3ccccc3)CC2)cc1

Arranged by formula weight (ascending): 4 of the compounds above.
Rango dissoc inh | Rango complex inh | miR-21 reporter | GLA inh pH 4.5 | mol
-5.0% | -3.9% | -6.2% | -6.0 | O=C(O)CSCCC(=O)Nc1ccc(F)cc1
15.5% | -1.2% | -0.3% | ? | O=P(O)(CCc1ccccc1)C(O)c1ccccc1 (centres undefined)
26.9% | -2.8% | 24.4% | -5.3 | CCOc1ccc(C2=Nn3c(nnc3-c3ccccc3OC)SC2)cc1
22.9% | -0.4% | -53.8% | -7.4 | O=C(OC(c1ccccc1)c1nccc2ccccc12)c1cccc([N+](=O)[O-])c1 (centres undefined)
